From PubChem
CapD inh = blocks the Bacillus anthracis CapD enzyme | purified CapD enzyme, fluorescence intensity read-out; stronger effect = lower value; some hits fall short of the stated cut | z-score (concentration not given with the values) | 140,000 tested, 0.23% active | AID 492967;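 active = z-score under -4 in either of two replicates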;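 also: stock transfer was 100 nL into about 40 µL; score is relative to mean and spread of the plate; one replicate is shown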
AID504770 = E. coli YBA685 growth inhibition, screen for V. cholerae RctB inhibitors; 130,000 tested, 0.27% active; E. coli YBA685 rctB-dependent plasmid, OD600 growth, 3 h; stronger effect = lower value; z-score (concentration not given with the values);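 active = z-score under -2 on both plates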;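 also: wells of about 30 µL received 100 nL stock; score is relative to mean and SD of the test wells; the first replicate is given; strong numbers were not always called active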
The depositor's hits bear a star; · = no result given.

| canonical_smiles | AID504770 | CapD inh |
| --- | --- | --- |
| Cc1cc2oc(=O)c3c(c2cc1OCC(N)=O)CCCC3 | 0.05 | 5.55 |
| O=C(NNC1=NCCC1)c1cccc(S(=O)(=O)Nc2ccc(Cl)cc2)c1 | -0.45 | · |
| N#Cc1c(F)cccc1NC(=O)CN1CCCCC1 | 2.1 | 0.035 |
| CN1CCN(C(=O)CCN2C(=O)/C(=C/c3cccs3)SC2=S)CC1 | · | -2.04 |
| Cc1nccc2[nH]c(=O)c(C(=O)NCc3ccc(Cl)cc3)cc12 | -0.25 | -2.68 |
| Cc1ccc(CS(=O)(=O)c2ncn[nH]2)cc1 | 0.8 | 0.075 |
| CC1Cc2ccccc2N1C(=O)COC(=O)c1ccccc1NC(=O)c1ccco1 (configuration not stated) | 1.15 | · |
| COc1cc(NC(=O)c2cccc3c2C(=O)N(Cc2cccnc2)C3)cc(OC)c1OC | -0.45 | -0.135 |
| COc1ccc(C(O)c2nccn2Cc2ccccc2)cc1 (configuration not stated) | 1.1 | -0.17 |
| Cc1ccc(-n2nc3c(c2NC(=O)c2cc4ccccc4oc2=O)CS(=O)(=O)C3)c(C)c1 | · | -0.24 |
| CSc1ccc(C(=O)O)cc1 | -0.9 | · |
| Clc1ccc(CSc2cnc3ccccc3n2)cc1 | -0.15 | -0.195 |
| Cc1ccc(Cn2cccc(C(=O)N3CCc4ccccc43)c2=O)cc1 | 1.05 | · |
| CCCN(C(=O)NCC)C1CCN(Cc2c(OC)cccc2OC)CC1 | · | -0.605 |
| C=CCn1c(C)cc(C(=O)CSC2=Nc3ccccc3C3CC=NN23)c1C (configuration not stated) | -0.5 | · |
| Cc1ccc(S(=O)(=O)N2CC3c4ccccc4CCN3C2C(C)C)cc1 (configuration not stated) | · | 0.245 |
| O=C(Cc1ccccc1)Nc1c2c(nn1-c1ccc(Cl)cc1)CSC2 | 0.75 | -0.255 |
| Clc1ccccc1CN1CCC(c2nc(-c3cccnc3)no2)CC1 | · | -0.405 |
| CCCCOC(=O)c1ccc(NC(=O)c2c(O)c3cccc4c3n(c2=O)CC4)cc1 | · | 2.26 |
| CCc1cc2c(-n3nc(C)cc3C)ncnc2s1 | 0.4 | 0.8 |
| Cc1ccccc1C(=O)Oc1c(-c2ccco2)oc2ccccc2c1=O | -0.65 | 3.08 |
| CC(=NCC(C)O)c1cc(Cl)ccc1O (configuration not stated) | -0.5 | -1.17 |
| COc1ccc(/C=C2\SC(=O)N(C)C2=O)cc1 | 1.55 | -0.455 |
| Nc1cc(Cl)c(-n2cccc2)cc1Oc1ccc(Cl)cc1 | · | -0.19 |
| CCOC(=O)C1CCCN(C(=O)CCc2ccccc2)C1 (configuration not stated) | -0.3 | 0.47 |
| Nn1cnnc1SCc1ccc(F)cc1 | 1 | 0.12 |
| CCCOc1ccc(NC(C)=O)cc1 | 0.8 | 0.355 |
| CCCCn1cnc2c1c(=O)[nH]c(=O)n2CCC | 0.1 | · |
| COC(=O)CNC(c1ccccc1)c1cc(Br)ccc1N=Cc1ccccc1O (configuration not stated) | -1.15 | 0.03 |
| CCOC(=O)/C=c1\s/c(=C\c2ccccn2)c(=O)n1CC(=O)N1c2ccccc2CC1C (configuration not stated) | 0 | · |
| CC1CCCN(c2ncnc3scc(-c4ccccc4)c23)C1 (configuration not stated) | · | -0.43 |
| CC(C)CCSc1nc2ccccc2n1Cc1cc(=O)n2ccsc2n1 | -0.25 | · |
| CNCCc1c(-c2ccccc2)n(-c2ccccc2)c2ccccc12 | 0.3 | 55.9 |
| CCC(Sc1nc2n[nH]c(C)c2c(=N)n1-c1ccc(Oc2ccccc2)cc1)C(=O)N1CCOCC1 (configuration not stated) | · | 0.305 |
| CCOc1ccc(-c2cc(=O)c3ccccc3o2)cc1 | 2.1 | 76 |
| CCOc1ccc(-n2c(=S)[nH]c3c(sc(=S)n3-c3ccc(Cl)c(C)c3)c2=O)cc1 | · | -1.94 |
| Cc1ccccc1OCc1nc2c3c4c(sc3ncn2n1)C(C)(C)NC(C)(C)C4 | · | 0.235 |
| Cc1ccc2oc(=O)c3cnn(CC(=O)NCCC4=CCCCC4)c3c2c1 | -0.25 | -0.11 |
| O=C(C1COc2ccccc2O1)N1CCN(S(=O)(=O)c2ccccc2F)CC1 (configuration not stated) | · | 0.375 |
| CCn1nc(C(=O)NCCc2ccc(OC)cc2)c2ccccc2c1=O | 2.1 | · |
| COc1cc(/C=c2/sc3nc4c(Br)c(C)c(C)cc4n3c2=O)ccc1O | · | -0.315 |
| CCc1ccc(C2=NNC(=O)CC2)cc1 | -0.5 | 0.065 |
| CN(C1=NC(=O)C(C2SC(=O)NC2=O)S1)c1ccc(O)cc1 (configuration not stated) | · | -0.18 |
| c1csc(-c2cc(N3CCOCC3)c3ccccc3n2)c1 | 0.5 | 5.03 |
| O=C(CSC1=Nc2ccccc2C2=NC(CC(=O)NCc3ccco3)C(=O)N12)NCc1ccco1 (configuration not stated) | 2.25 | -1.99 |
| CN(C)c1ccc(C2CC(C)(N3CCCC3)Oc3cc4c(cc32)OCO4)cc1 (configuration not stated) | -0.35 | 1.71 |
| O=C(Nc1ccc(F)cc1)c1ccccc1NC(=S)Nc1ccc(Cl)c(Cl)c1 | · | 47.5 |
| CN(C)C(=O)CN1CCN(c2ccc(F)cc2)CC1 | 1.5 | · |
| O=C(CC12CC3CC(CC(C3)C1)C2)N1CCC(O)(c2ccc(Cl)cc2)CC1 | 1.05 | 0.155 |
| Nc1ccn(C2O[C@H](CO)[C@@H](O)[C@@H]2O)c(=O)n1 (some centres not stated) | 0.3 | 0.265 |
| CS(=O)(=O)N1CCN=C1SCc1ccc(Cl)c(Cl)c1 | -0.45 | 0.385 |
| CCOC(=O)c1csc(COc2ccc(C3SCCS3)cc2)n1 | 0.8 | -0.4 |
| CC1=C(C(=O)OCCOc2ccccc2)C(c2coc3ccccc3c2=O)C2=C(CC(C)(C)CC2=O)N1 (configuration not stated) | · | -0.16 |
| CCOC(=O)c1sc(-c2ccccc2)nc1OC(=O)c1ccc(C(F)(F)F)cc1 | 0.3 | 9.12 |
| CC1CCCCN1S(=O)(=O)c1ccc(C(=O)Nc2nnc(C3CC3)o2)cc1 (configuration not stated) | -0.85 | · |
| CC1CCN(C(=O)c2cccn3c(=O)c4c5c(sc4nc23)CCCC5)CC1 | -0.15 | -0.55 |
| NC(=O)CNC(=O)c1ccc(C(F)(F)F)cc1 | -0.3 | · |
| COc1cc(Cl)c(C)cc1NC(=O)c1ccc2c(=O)n3c(nc2c1)CCC3 | 0.5 | · |
| COc1cc(C)c(C)cc1S(=O)(=O)N1CCCCC1c1cccnc1 (configuration not stated) | -1.05 | 0.47 |
| CS(=O)(=O)c1ccc(CN(C(=O)c2ccc(C(F)(F)F)cc2)c2ccccn2)cc1 | · | -0.575 |

Next section:
| canonical_smiles | AID504770 | CapD inh |
| --- | --- | --- |
| CC1C(=O)C2(CCCCC2)C(=O)OC1c1ccccc1 (configuration not stated) | 0.4 | 0.11 |
| Cc1c(C(=O)N2CCC(C(N)=O)(N3CCCCC3)CC2)sc2ncn(CC(=O)N3CCCCC3C)c(=O)c12 (configuration not stated) | · | -0.4 |
| COc1ccc(CCNc2ncnc3cc(OC)c(OC)cc23)cc1OC | · | 0.185 |
| COc1ccc(C2CC(=O)C=C(Nc3ccccc3)C2)cc1 (configuration not stated) | -0.9 | -0.02 |
| CC(C)OC(=O)COc1ccc2c(=O)c(Oc3ccccc3Br)coc2c1 | · | -0.23 |
| O=C(CC1C(=O)NCCN1C(=O)Nc1ccccc1)Nc1cccc(C(F)(F)F)c1 (configuration not stated) | 1.3 | -0.64 |
| COc1ccc(S(=O)(=O)N(Cc2ccco2)Cc2nnc(-c3cccs3)o2)cc1 | 0.25 | · |
| CC(C)(C)c1noc2nc(-c3cccs3)cc(C(F)(F)F)c12 | 0.3 | · |
| Nc1ccc2oc(-c3ccccc3Br)nc2c1 | -0.45 | · |
| CC1CN(C(=O)c2ccc(OCc3cccc(Cl)n3)cc2)CC(C)O1 (configuration not stated) | · | 0.26 |
| COc1ccc(Nc2nc(-c3cccs3)cs2)cc1 | 0.9 | 0.16 |
| CSC1=NC(=Nc2cccc(C)c2)C2(CCCCC2)N1c1ccc(Br)cc1 | · | -0.345 |
| COc1ccc(CN2CCSCC2)c(OC)c1OC | -0.95 | -0.39 |
| CCN(CC)C(=O)c1cn(-c2ccccc2)nc1C12CC3CC(CC(C3)C1)C2 | -0.3 | 0.315 |
| CCCCN1C(=O)/C(=c2\sc3nc(-c4ccccc4OC(C)=O)nn3c2=O)c2ccccc21 | · | 0.105 |

Quoted from the results shown (3 entries):
| canonical_smiles | AID504770 | CapD inh |
| --- | --- | --- |
| COc1ccc(CN2CCSCC2)c(OC)c1OC | -0.95 | -0.39 |
| CCN(CC)C(=O)c1cn(-c2ccccc2)nc1C12CC3CC(CC(C3)C1)C2 | -0.3 | 0.315 |
| CCCCN1C(=O)/C(=c2\sc3nc(-c4ccccc4OC(C)=O)nn3c2=O)c2ccccc21 | · | 0.105 |

Later entries:
| canonical_smiles | AID504770 | CapD inh |
| --- | --- | --- |
| O=S(=O)(c1ccc(Cl)cc1)N1CCCC2CCCCC21 (configuration not stated) | 0.65 | 0.08 |
| O=C(NCc1ccncc1)c1cc(-c2ccc(Cl)cc2)oc1C(F)(F)F | -0.7 | -0.665 |
| COC(=O)Cn1cc2c(n1)-c1c(oc(C(=O)N3CCCC3)c1C)CC2 | -0.5 | 6.92 |
| CC1CCCN(CCCNC(=O)Cn2nc(-c3ccccc3)ccc2=O)C1 (configuration not stated) | 1.4 | 1.57 |
| O=C1Cc2cc(C(=O)CSc3nnc(-c4ccoc4)c(-c4ccoc4)n3)ccc2N1 | 0.05 | · |
| O=C(Cc1cn2ccsc2n1)N/N=C1\CCCCC1C1CCCCC1 (configuration not stated) | 1 | · |
| COc1ccc(CN(C)C(=O)Nc2ccccc2)cc1 | -0.8 | -0.1 |
| CC1=C(C(=O)OCc2ccc3c(c2)OCO3)C(c2ccccc2OCc2ccccc2)NC(=O)N1 (configuration not stated) | · | 0.05 |
| Cn1c(=Nc2ccccc2C(=O)O)sc2ccccc21 | 0.9 | 0.645 |
| O=c1oc2ccccc2n1CNc1cccc(Cl)c1 | -0.35 | 0.27 |
| Cc1cc2nc3s/c(=C\c4cccc(OCc5c(F)cccc5Cl)c4)c(=O)n3c2cc1C | · | 0.79 |
| CC(C)(C)c1cc(NC(=O)Nc2ccccc2)no1 | -0.6 | 0 |
| Cc1ccc(NC(=O)Nc2ccc(N(C)C)cc2)cc1 | 0.1 | · |
| C/C(=N\NC(=O)c1ccn[nH]1)c1cc(O)ccc1O | -0.9 | -0.58 |
| CCOC(=O)C1CCN(C(c2ccncc2)c2c(O)cc(C)n(Cc3cccnc3)c2=O)CC1 (configuration not stated) | -1.2 | · |
| Cc1cc2ncc(-n3cncn3)c(-c3ccccc3)n2n1 | -1.05 | -0.645 |
| CC(C)=CCCC(C)CN1CCC(O)CC1 (configuration not stated) | -0.7 | 0.145 |
| COC(=O)c1cc(NC(=O)CSC2=NCCS2)cc(C(=O)OC)c1 | 0.3 | -0.27 |
| Cc1ccc(N(CC(=O)O)S(=O)(=O)c2ccccc2)cc1 | -0.45 | 0.065 |
| CCN(CC)CCN(C)C1CCC(C)CC1 (configuration not stated) | -0.6 | -0.07 |
| Clc1ccccc1CN1CCN(/N=C/C=C\c2ccco2)CC1 | -0.7 | 33.7 |
| CCOC(=O)c1cnc2c(cnn2C)c1Cl | 0.6 | -0.045 |
| CC1=C(C(=O)Nc2nc3ccc(Br)cc3s2)C(c2ccccc2)C2=C(CC(C)(C)CC2=O)N1 (configuration not stated) | · | 1.5 |
| N=C1/C(=C\c2ccc(SCc3ccccc3)o2)C(=O)N=C2SC(CC(=O)N3CCOCC3)=NN12 | -2.2 | -2.96 |
| O=C(COC(=O)c1ccccc1O)NCc1ccccc1 | -0.7 | · |
| Cc1ccc(C)c(NC(=O)C(Sc2nnnn2Cc2cccs2)c2ccccc2)c1 (configuration not stated) | 0.75 | · |
| Cc1oc(-c2ccccc2Cl)nc1CS(=O)(=O)CC(=O)NCCN1CCOCC1 | 0.8 | -0.19 |
| O=C(Cc1ccccc1)SC1=NCCS1 | 0.05 | -0.37 |
| CN1c2ccccc2C(O)=C(C(=O)Nc2cccc(C(F)(F)F)c2)S1(=O)=O | · | 0.94 |
| CCOC(=O)/C(=N\Nc1ccccc1)N1CCN(S(=O)(=O)c2cccc(Br)c2)CC1 | 0.9 | · |
| Cn1c2c(c(=O)[nH]c1=O)C(c1ccc([N+](=O)[O-])o1)C1=C(N2)c2ccccc2C1=O (configuration not stated) | · | -0.32 |
| NC(=O)CCCCC1CCSS1 (configuration not stated) | 0.05 | 1.13 |
| COc1ccc(C(=O)NCC(C)C)c(OC)c1 | 2.35 | · |
| COc1cc(OC)nc(OCc2cc3cccc4c3n(c2=O)CCC4)n1 | · | 3.79 |
| CCc1nnc(NC(=O)CN2CCN(c3ccccc3)CC2)s1 | -0.4 | · |
| O=C(Nc1cccc([N+](=O)[O-])c1)c1cc(-c2ccccc2)nc2ccccc12 | · | -0.54 |
| COc1ccc(Cl)cc1NS(C)(=O)=O | -0.6 | -0.135 |
| c1ccc(-c2nc(N3CCCCC3)nc3ccccc23)cc1 | -0.55 | · |
| COCc1cc(=O)[nH]c(-c2ccccc2)n1 | 0.3 | -0.05 |
| c1ccc(CSc2nc3ccccc3n2Cc2ccccn2)cc1 | -2.05 | -0.42 |
| O=C(NC1CCCC1)c1cc(F)c(F)cc1Cl | -0.25 | 0.48 |
| O=C(Nc1cccc(Cl)c1N1CCOCC1)c1ccco1 | -0.95 | · |
| O=c1[nH][nH]c(=S)n1-c1ccc(Cl)c(Cl)c1 | · | 0.13 |
| CCC(=O)N1c2ccccc2-c2nnc(SC)nc2OC1c1ccsc1 (configuration not stated) | -1.15 | -1.05 |
| CCS(=O)(=O)c1ccc2oc(CN3C(=O)S/C(=C\c4ccccc4Cl)C3=O)nc2c1 | 2.85 | · |

Molecules above containing a tert-butyl group:
| canonical_smiles | AID504770 | CapD inh |
| --- | --- | --- |
| CC(C)(C)c1noc2nc(-c3cccs3)cc(C(F)(F)F)c12 | 0.3 | · |
| CC(C)(C)c1cc(NC(=O)Nc2ccccc2)no1 | -0.6 | 0 |
